HIV Env fusion = inhibitors of HIV-1 Env-driven cell-cell fusion, primary screen, HeLa-JRFL effector, CEM21 target cells, luciferase | inhibition, % at 12.3 µM | actives 1.1% (n = 360,000) | AID 651610, 2012;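 active = mean replicate inhibition score of at least 50 and every replicate individually at or above 50; inconclusive = only one of the two criteria met; inactive = mean below 50 and not all replicates reaching 50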;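 also: 0% = plate neutral controls and 100% = maraviroc near 300 nM; one replicate is shown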
PABP polyA inh = PABP poly(A) RNA binding inhibitors, primary screen, biochemical, fluorescence polarization, uHTS. actives 1% (n = 290,000). Polyadenylate-binding protein 1 (Homo sapiens), P11940. inhibition, % at 35 µM;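 active = 50% or more with normal probe brightness, or confirmed in later tests; inconclusive = above 50% with abnormal brightness, or retests that disagree; inactive = below 50% or failed in later tests; about a fifth of its hits are not listed in these tables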;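 also: calls also rest on retests at 20 µM and on dose response follow-up; controls were probe without protein and protein plus probe with vehicle; some compounds called inactive have numbers as strong as hits; many hits fall short of the cut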
Target sequence (P11940 whole entry, looked up): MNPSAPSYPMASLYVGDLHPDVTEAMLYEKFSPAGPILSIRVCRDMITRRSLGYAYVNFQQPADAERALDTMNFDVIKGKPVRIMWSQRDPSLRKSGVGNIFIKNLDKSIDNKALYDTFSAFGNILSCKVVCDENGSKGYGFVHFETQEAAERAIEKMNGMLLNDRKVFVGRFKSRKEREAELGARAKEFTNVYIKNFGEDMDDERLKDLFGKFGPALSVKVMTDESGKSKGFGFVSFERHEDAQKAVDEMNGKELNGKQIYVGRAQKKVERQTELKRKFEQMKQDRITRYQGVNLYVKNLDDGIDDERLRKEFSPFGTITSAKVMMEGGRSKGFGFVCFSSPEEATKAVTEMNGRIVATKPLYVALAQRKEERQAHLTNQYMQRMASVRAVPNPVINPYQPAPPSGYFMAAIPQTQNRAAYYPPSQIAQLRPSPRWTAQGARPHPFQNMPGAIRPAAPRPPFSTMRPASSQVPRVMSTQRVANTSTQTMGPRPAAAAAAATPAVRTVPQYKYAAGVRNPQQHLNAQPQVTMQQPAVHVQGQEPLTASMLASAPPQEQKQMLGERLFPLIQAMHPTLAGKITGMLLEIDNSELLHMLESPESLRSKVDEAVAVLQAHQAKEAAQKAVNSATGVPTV
UUG fidelity = modulators of yeast start codon fidelity, primary screen, whole organism, S. cerevisiae, single point, plate reader. S. cerevisiae UUG-firefly luciferase reporter, luminescence/redox ratio. activity score, % at 18.7 µM. actives 0.13% (n = 350,000). AID 602363, 2012;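 active = replicate mean at a twofold rise or more, about +100% in these data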;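 also: firefly luciferase made from a UUG start codon reports start codon fidelity; reporter light over untreated wells divided by growth signal over untreated wells; some hits fall short of that in this replicate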
MT1-MMP act inh = blockers of MT1-MMP proenzyme processing, primary screen, HT1080 RFP-PRO-GFP cells, GFP/RFP fluorescence | Matrix metalloproteinase-14 (Homo sapiens), P50281 | actives 0.061% (n = 360,000) | GFP/RFP ratio fluorescence, overnight; percent of plate control window, DMSO zero | AID 651647, 2012 | GFP/RFP ratio change, % at 20 µM;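 active = GFP/RFP ratio change of at least 30% with cell ATP level not reduced by more than half and red fluorescence within 50% of control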; also: strong numbers were not always called active
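Test system: HT1080 RFP-PRO-GFP cells; Benchmarks: DMSO and RFP-L50D-GFP cell wells; Timing: cells overnight before dosing, compound overnight, 37 °C, 5% CO2; Compound: one 20 µM compound dose with 1% DMSO; Read-out: GFP/RFP fluorescence ratio.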
Rce1 inhib = yeast Rce1p protease inhibitors, primary screen, biochemical, fluorescence, cell-free homogeneous; AID 2563, 2010; CAAX prenyl protease 2 (Saccharomyces cerevisiae (strain ATCC 204508 / S288c)), Q03530; yeast membranes, quenched prenylated peptide cleavage fluorescence; calls only; actives 0.27% (n = 290,000);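 active = fall in fluorescence gain of 50% or more versus controls, with final raw signal at or below 3038400; inconclusive = same 50% fall but final raw signal above 3038400; inactive = fall in fluorescence gain under 50%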;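 also: plate controls were neutral control wells for no effect and wells lacking membranes for full effect; tested at 10 µM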
Target sequence (Q03530 whole entry, looked up): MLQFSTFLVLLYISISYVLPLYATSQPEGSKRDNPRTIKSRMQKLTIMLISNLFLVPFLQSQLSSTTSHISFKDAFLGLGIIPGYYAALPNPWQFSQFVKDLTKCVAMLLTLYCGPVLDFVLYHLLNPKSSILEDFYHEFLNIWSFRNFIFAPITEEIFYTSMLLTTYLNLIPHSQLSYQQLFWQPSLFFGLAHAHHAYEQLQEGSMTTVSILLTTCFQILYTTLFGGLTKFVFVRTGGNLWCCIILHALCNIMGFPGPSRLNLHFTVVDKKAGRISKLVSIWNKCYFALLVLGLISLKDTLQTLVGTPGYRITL
eIF4H FP inh = human eIF4H binding inhibitors, primary screen, translation initiation inhibitor project, biochemical, uHTS, fluorescence polarization; inhibition, % at 35 µM; eIF4H fluorescence polarization binding assay; Eukaryotic translation initiation factor 4H (Homo sapiens), Q15056; actives 0.94% (n = 290,000); AID 2012, 2009;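 active = 50% or more with normal probe brightness, or confirmed in later tests; inconclusive = above 50% with abnormal brightness, or retests that disagree; inactive = below 50% or failed in later tests; about a fifth of its hits are not listed in these tables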;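 also: calls also rest on retests at 20 µM and on dose response follow-up; 0% = protein and probe with vehicle and 100% = probe without protein; strong numbers were not always called active; many hits fall short of the cut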
CSC inhib = cancer stem cell viability inhibitors, primary screen, luminescence. cancer stem cell-like cells viability. inhibition, % at 7.5 µM. actives 1.1% (n = 300,000). AID 2717, 2010;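 active = mean at 75% or more and at least half the replicates too; inconclusive = mean and replicates disagree; tested in HMLE shEcad cells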;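 also: 0% = median of negative and 100% = median of positive control wells; the first replicate is given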
MT1-MMP act inh RFP = second read-out of MT1-MMP act inh, no call of its own (marks repeat the call); RFP signal change, %; measured here: RFP expression control read;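 0 = vehicle wells; hits needed this value within 50% of zero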
* = called active by the depositor; & = joins results of further samples. Rows are unselected; about 2.9% have a hit in one of these screens.

For C#CCN1CC(C)/C(=N/O)CC1C (configuration not stated) the results were PABP polyA inh 16, UUG fidelity -19, MT1-MMP act inh 4, Rce1 inhib inactive, eIF4H FP inh -6, CSC inhib 0 and MT1-MMP act inh RFP 1.
Screening COc1cccc(C(=O)NCc2nnc(SCC(=O)Nc3nccs3)n2-c2ccccc2)c1 returned HIV Env fusion 1, PABP polyA inh 3, UUG fidelity 5, MT1-MMP act inh -1, Rce1 inhib inactive, eIF4H FP inh -2, CSC inhib -12 and MT1-MMP act inh RFP 0.
`COc1cc(C#Cc2c(-c3ccccc3OC)oc3ccccc23)cc(OC)c1` gave HIV Env fusion -8, UUG fidelity 6, MT1-MMP act inh -4, CSC inhib 9 and MT1-MMP act inh RFP -1.
Screening Cc1nn(CC(=O)c2ccc(Br)s2)c(C)c1[N+](=O)[O-] returned HIV Env fusion -3, PABP polyA inh 2, UUG fidelity 1, MT1-MMP act inh -11, Rce1 inhib inactive, eIF4H FP inh -10, CSC inhib -11 and MT1-MMP act inh RFP 2.
Screening Cc1cc(C)n(-c2ccc(C(=O)OCC(=O)Nc3cc(S(C)(=O)=O)ccc3Cl)cc2)n1 returned UUG fidelity -1, MT1-MMP act inh 4, CSC inhib -2 and MT1-MMP act inh RFP 7.
Screening Cc1oc2c(CN3CCCC3)c(O)ccc2c(=O)c1-c1ccc(Cl)cc1 returned PABP polyA inh 1, UUG fidelity -6&1, MT1-MMP act inh 1, Rce1 inhib inactive, eIF4H FP inh -3, CSC inhib 36 and MT1-MMP act inh RFP 2.
`CCC(Oc1ccccc1)C(=O)N1CCN(c2ccccn2)CC1` (configuration not stated) gave PABP polyA inh 8, UUG fidelity -1, MT1-MMP act inh -6, Rce1 inhib inactive, eIF4H FP inh 9, CSC inhib -9 and MT1-MMP act inh RFP -4.
For NC(=O)c1c(NC(=O)c2cc3ccccc3o2)sc2c1CCC2 the results were PABP polyA inh 46, UUG fidelity -21, MT1-MMP act inh -15, Rce1 inhib inactive, eIF4H FP inh 12, CSC inhib -5 and MT1-MMP act inh RFP 3.
`O=C(CC(CC(=O)c1ccc(Cl)cc1)c1ccccc1C(=O)O)c1ccc(Cl)cc1` gave HIV Env fusion 5, PABP polyA inh 7, UUG fidelity 4, MT1-MMP act inh -1, Rce1 inhib inactive, eIF4H FP inh 6 and MT1-MMP act inh RFP 4.
Screening Cc1ccccc1NC(=O)c1cccc(OCc2c(C)noc2C)c1 returned PABP polyA inh -12, UUG fidelity 3, MT1-MMP act inh 3, Rce1 inhib inactive, eIF4H FP inh -3, CSC inhib -2 and MT1-MMP act inh RFP 0.
CCOc1c(Br)cc(CNc2ccc(N3CCN(C(C)=O)CC3)cc2)cc1OC was read as HIV Env fusion 29, PABP polyA inh 9, UUG fidelity -19, MT1-MMP act inh -4, Rce1 inhib inactive, eIF4H FP inh 6, CSC inhib -1 and MT1-MMP act inh RFP -13.
Screening O=C(NCc1ccco1)/C(=C/c1ccc(Br)cc1)NC(=O)c1ccco1 returned HIV Env fusion 5, PABP polyA inh 2, UUG fidelity 4, MT1-MMP act inh 4, Rce1 inhib inactive, eIF4H FP inh 15, CSC inhib -11 and MT1-MMP act inh RFP 3.
For CCOC(=O)CCc1c(C)c2ccc(OCc3nn[nH]n3)c(C)c2oc1=O the results were HIV Env fusion 8, PABP polyA inh 35, MT1-MMP act inh 6, Rce1 inhib inactive, eIF4H FP inh -9, CSC inhib -8 and MT1-MMP act inh RFP 1.
`Cc1ccc(S(=O)(=O)NCC(=O)Nc2ccc3c(c2)OCO3)cc1` gave HIV Env fusion 15, PABP polyA inh 0, UUG fidelity 35, MT1-MMP act inh 2, Rce1 inhib inactive, eIF4H FP inh -3 and MT1-MMP act inh RFP 4.
COc1ccc(C2C(C#N)=C(C)NC3=C2C(=O)CC(C)(C)C3)c(OC)c1 (configuration not stated) was read as PABP polyA inh -19, UUG fidelity -13, MT1-MMP act inh 16, Rce1 inhib inactive, eIF4H FP inh -12 and MT1-MMP act inh RFP -1.

Next part; the last two above are carried over.
`Cc1ccc(S(=O)(=O)NCC(=O)Nc2ccc3c(c2)OCO3)cc1` gave HIV Env fusion 15, PABP polyA inh 0, UUG fidelity 35, MT1-MMP act inh 2, Rce1 inhib inactive, eIF4H FP inh -3 and MT1-MMP act inh RFP 4.
COc1ccc(C2C(C#N)=C(C)NC3=C2C(=O)CC(C)(C)C3)c(OC)c1 (configuration not stated) was read as PABP polyA inh -19, UUG fidelity -13, MT1-MMP act inh 16, Rce1 inhib inactive, eIF4H FP inh -12 and MT1-MMP act inh RFP -1.
Screening FC(F)(F)Oc1ccccc1C(c1nnnn1C1CCCC1)N1CCN(C/C=C/c2ccccc2)CC1 (configuration not stated) returned HIV Env fusion -56, UUG fidelity -6, MT1-MMP act inh -10 and MT1-MMP act inh RFP -13.
For COc1cc(OC)cc(C(=O)N(Cc2nc(-c3cccc(C)c3)no2)C(C)C)c1 the results were PABP polyA inh -2, UUG fidelity 6, MT1-MMP act inh 0, Rce1 inhib inactive, eIF4H FP inh -3 and MT1-MMP act inh RFP 1.
`CCn1cc(CN2CCC(C(=O)Nc3ccc(Oc4cccnc4)cc3)CC2)c(C)n1` gave HIV Env fusion 43, PABP polyA inh -9, UUG fidelity -16, MT1-MMP act inh -1, eIF4H FP inh 7, CSC inhib -7 and MT1-MMP act inh RFP -3.
O=C(NC(=S)Nc1cccc(Cl)c1Cl)C1CC1 was read as HIV Env fusion -29, PABP polyA inh 2, UUG fidelity -23, MT1-MMP act inh -1, Rce1 inhib inactive, eIF4H FP inh 5, CSC inhib -2 and MT1-MMP act inh RFP 1.
Cc1nc(C(=O)N2CCOCC2)sc1C1(C)CC(c2ccccc2)=NO1 (configuration not stated) was read as HIV Env fusion -26, PABP polyA inh 0, UUG fidelity -17, MT1-MMP act inh 2, Rce1 inhib inactive, eIF4H FP inh 0, CSC inhib 12 and MT1-MMP act inh RFP 0.
COc1ccccc1C(=O)N1CCCC(c2nc(-c3cc(OC)c(OC)c(OC)c3)no2)C1 (configuration not stated) was read as HIV Env fusion 21, PABP polyA inh -6, MT1-MMP act inh -4, Rce1 inhib inactive, eIF4H FP inh -9, CSC inhib -15 and MT1-MMP act inh RFP -6.
CCCCn1nnnc1NCc1cccnc1 was read as PABP polyA inh 3, UUG fidelity -13, Rce1 inhib inactive, eIF4H FP inh 5 and CSC inhib -9.
`O=C1c2ccccc2C(=O)N1CC#CCN1CCN(C2CCCCC2)CC1` gave PABP polyA inh 34, UUG fidelity -7, Rce1 inhib inactive, eIF4H FP inh -11 and CSC inhib 8.
COc1ccc(N2C=C3C(=O)C(C)(OC(=O)CCc4ccccc4)C(=O)C=C3C=C2c2ccc(C#N)cc2)cc1 (configuration not stated) was read as HIV Env fusion -5, PABP polyA inh 7, UUG fidelity -4, MT1-MMP act inh 6, Rce1 inhib inactive, eIF4H FP inh 2, CSC inhib 2 and MT1-MMP act inh RFP 4.
For C[C@@H]1O[C@@H](Oc2c(-c3ccc(O)c(O)c3)oc3cc(O)cc(O)c3c2=O)[C@H](O)[C@H](O)[C@H]1O the results were HIV Env fusion 8&-8, UUG fidelity 12&-12, MT1-MMP act inh 7&0, CSC inhib 0 and MT1-MMP act inh RFP 4&2.
CCSC1C(=O)N(C)C(SCC)C(=O)N1C (configuration not stated) was read as HIV Env fusion -8, UUG fidelity -29, MT1-MMP act inh -4 and MT1-MMP act inh RFP 0.
Screening Cc1ccc(C(=O)NC(C)c2ccccc2)o1 (configuration not stated) returned HIV Env fusion 11, PABP polyA inh -4, UUG fidelity -8, MT1-MMP act inh -1, Rce1 inhib inactive, eIF4H FP inh 2, CSC inhib -16 and MT1-MMP act inh RFP 3.
Screening Cc1ccc(C(=O)OCC(=O)NCc2cccs2)cc1S(=O)(=O)N1CCOCC1 returned HIV Env fusion 5, PABP polyA inh -11, MT1-MMP act inh 7, Rce1 inhib inactive, eIF4H FP inh 2, CSC inhib -3 and MT1-MMP act inh RFP 0.
Cc1nnc(SCC(=O)NCc2ccccc2Cl)[nH]c1=O was read as HIV Env fusion 13, PABP polyA inh -1, UUG fidelity -32, MT1-MMP act inh 1, Rce1 inhib inactive, eIF4H FP inh -6, CSC inhib -10 and MT1-MMP act inh RFP 5.
For O=C(COc1cccc(NC(=O)c2cccc([N+](=O)[O-])c2)c1)c1ccc(Br)cc1 the results were PABP polyA inh -13, UUG fidelity -6, MT1-MMP act inh 1, Rce1 inhib inactive, eIF4H FP inh -5, CSC inhib 27 and MT1-MMP act inh RFP -20.
`CN(c1ccccc1)S(=O)(=O)c1cccc(NC(=O)c2cncc(Br)c2)c1` gave HIV Env fusion 21, PABP polyA inh 3, UUG fidelity -1, MT1-MMP act inh 1, Rce1 inhib inactive, eIF4H FP inh 0, CSC inhib 13 and MT1-MMP act inh RFP -15.
For CC(=O)Nc1ccc(-c2nc3ccccc3c(=O)o2)cc1 the results were HIV Env fusion -14, PABP polyA inh 19, UUG fidelity -16, MT1-MMP act inh 0, Rce1 inhib inactive, eIF4H FP inh 3, CSC inhib -2 and MT1-MMP act inh RFP 0.
For CC(C)(C)OC(=O)N/N=C\c1ccc(OC(=O)c2ccco2)cc1 the results were HIV Env fusion -31, PABP polyA inh -7, MT1-MMP act inh 0, Rce1 inhib inactive, eIF4H FP inh -7, CSC inhib -13 and MT1-MMP act inh RFP 4.
CCn1c(Cc2ccccc2)nnc1SCC(=O)Nc1ccc(OC)cc1 was read as HIV Env fusion -3, PABP polyA inh 5, UUG fidelity -23, MT1-MMP act inh 4, Rce1 inhib inactive, eIF4H FP inh -10, CSC inhib 1 and MT1-MMP act inh RFP -2.
COc1ccc(OCC(=O)NC2CCCN(Cc3ccc(Cl)cc3)C2)cc1 (configuration not stated) was read as HIV Env fusion 27, PABP polyA inh 4, UUG fidelity -16, MT1-MMP act inh -4, Rce1 inhib inactive, eIF4H FP inh 3, CSC inhib -4 and MT1-MMP act inh RFP -2.
For COc1ccc(NC(=O)CSCC(=O)NC2(C)CCS(=O)(=O)C2)cc1 (configuration not stated) the results were HIV Env fusion -14, PABP polyA inh 5, UUG fidelity -18, MT1-MMP act inh 1, Rce1 inhib inactive, eIF4H FP inh -4 and MT1-MMP act inh RFP 1.
For O=C(CCSc1nnc(-c2ccco2)o1)Nc1ccccc1 the results were HIV Env fusion inconclusive, PABP polyA inh 5, UUG fidelity -5, MT1-MMP act inh 1, Rce1 inhib inactive, eIF4H FP inh 18, CSC inhib -14 and MT1-MMP act inh RFP 5.

Two entries drawn at random from those above, as already listed:
`CCn1cc(CN2CCC(C(=O)Nc3ccc(Oc4cccnc4)cc3)CC2)c(C)n1` gave HIV Env fusion 43, PABP polyA inh -9, UUG fidelity -16, MT1-MMP act inh -1, eIF4H FP inh 7, CSC inhib -7 and MT1-MMP act inh RFP -3.
CCCCn1nnnc1NCc1cccnc1 was read as PABP polyA inh 3, UUG fidelity -13, Rce1 inhib inactive, eIF4H FP inh 5 and CSC inhib -9.
